Six1-Eya2 inh: qHTS Assay for Inhibitors of the Six1/Eya2 Interaction; 0.56% of 360,000 active; Homeobox protein SIX1 (Homo sapiens) + Protein phosphatase EYA2 (Homo sapiens), …; activity change, % (test concentration not listed); AlphaScreen GST-Six1/His-Eya2 binding, biochemical; hits give low values; control for the full effect not named in the record; in the data active = activity change below about -65%; inconclusive = about -30% to -65%; inactive = above about -30%; note: % is set by controls: 0 for no effect and ±100 for the full control effect; compound concentration not given in the record
Target sequence (O00167 whole entry, looked up): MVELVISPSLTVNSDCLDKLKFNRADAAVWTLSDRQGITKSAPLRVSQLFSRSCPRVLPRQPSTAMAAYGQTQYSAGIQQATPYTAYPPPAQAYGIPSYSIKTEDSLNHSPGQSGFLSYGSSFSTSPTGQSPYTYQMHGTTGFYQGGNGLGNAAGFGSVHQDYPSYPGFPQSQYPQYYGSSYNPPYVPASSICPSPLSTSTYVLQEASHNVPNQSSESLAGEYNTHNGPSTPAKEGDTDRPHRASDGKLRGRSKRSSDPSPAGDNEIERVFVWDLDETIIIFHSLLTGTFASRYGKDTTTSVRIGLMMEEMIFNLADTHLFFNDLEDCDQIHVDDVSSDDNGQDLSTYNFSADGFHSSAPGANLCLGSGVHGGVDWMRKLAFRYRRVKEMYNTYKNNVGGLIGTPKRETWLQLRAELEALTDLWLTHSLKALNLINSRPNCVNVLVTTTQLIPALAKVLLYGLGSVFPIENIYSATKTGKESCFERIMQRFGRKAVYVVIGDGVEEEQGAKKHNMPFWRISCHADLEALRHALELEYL
Target sequence (Q15475 whole entry, looked up): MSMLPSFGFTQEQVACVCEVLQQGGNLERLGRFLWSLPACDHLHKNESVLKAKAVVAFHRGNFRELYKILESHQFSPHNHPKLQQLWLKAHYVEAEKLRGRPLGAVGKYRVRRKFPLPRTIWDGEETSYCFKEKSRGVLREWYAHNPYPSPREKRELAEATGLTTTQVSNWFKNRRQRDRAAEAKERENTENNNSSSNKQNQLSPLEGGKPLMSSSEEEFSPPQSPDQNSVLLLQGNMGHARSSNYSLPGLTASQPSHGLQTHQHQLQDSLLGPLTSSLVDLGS
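AlphaScreen with GST-Six1 and His-Eya2 (5X mix: 250 nM and 500 nM), glutathione donor and nickel acceptor beads; buffer 50 mM Tris pH 8.0, 300 mM NaCl, 1 mM TCEP; 1 h at 37 C in the dark.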
D2 ag: Beta-Arrestin HTS for Positive Allosteric Modulators of the Human D2 Dopamine Receptor: Agonists; D(2) dopamine receptor (Homo sapiens), P14416; DiscoveRx PathHunter D2 beta-arrestin, luminescence, 90 min; 100% = 57 uM dopamine signal; activation, % (no concentration beside the values); 0.084% of 360,000 active; AID 624465, 2012; in the data active = activation above about 40%; inconclusive = about 15% to 40%; inactive = below about 15%; note: compound concentration not given in the record; the text of the record calls up to 30% inactive
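DiscoveRx PathHunter D2 beta-arrestin cells (2,100/well) attached overnight, then compound-stimulated 90 min at 37 C in HBSS/10 mM HEPES/0.1% Tween-20 buffer; beta-galactosidase complementation read by luminescence after 1 h at ambient temperature. Dopamine 57 uM final (EC100) as control.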
D2 PAM: Beta-Arrestin HTS for Positive Allosteric Modulators of the Human D2 Dopamine Receptor: Potentiators; D(2) dopamine receptor (Homo sapiens), P14416; DiscoveRx D2 beta-arrestin cells, luminescence, 90 min; 100% = 57 uM dopamine signal; potentiation, % (concentration not given with the values); 0.23% of 360,000 active; AID 624464, 2012; active = potentiation of 50% or more; inconclusive = 30% to 50%; inactive = 30% or less;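 note: compound concentration not given in the record; tested on top of an EC20 dose of dopamine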
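D2 cells co-treated with compound plus 50 nM dopamine (EC20) for 90 min at 37 deg C to detect potentiation. Beta-arrestin recruitment was read as enzyme-fragment luminescence after 1 h at ambient temperature. Full response was set by 57 uM dopamine.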
gsp antagonist: qHTS for Antagonists of gsp, the Etiologic Mutation Responsible for Fibrous Dysplasia/McCune-Albright Syndrome: qHTS | gsp-mutant cells, cAMP HTRF, 30 min; control for the full effect not named in the record | Potency, µM (series often up to 76.9 µM), for the others: at the top dose activity change, negative = inhibition, most hits filed as inhibitors | 0.4% of 340,000 active | AID 624288, 2012; active = falling curve of any shape with a large fitted effect; inconclusive = falling curve, mostly with a smaller effect; inactive = flat or rising curve; cell line not stated here;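 note: intracellular cAMP measured with PDE inhibitor Ro 20-1724 present during compound exposure; potency is the fitted concentration of half-maximal effect; % is set by controls: 0 for no effect and ±100 for the full control effect; nearly all actives have a fitted effect of over 65% in size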
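Measurement of cellular cAMP by homogeneous time-resolved fluorescence following a 30 min compound exposure at 37C. The PDE inhibitor […] was present throughout; the assay buffer was DPBS with 0.05% BSA and 0.005% Tween 20.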
gsp ag: qHTS for Agonist of gsp, the Etiologic Mutation Responsible for Fibrous Dysplasia/McCune-Albright Syndrome: qHTS | gsp mutant cells, cAMP HTRF, 30 min; control for the full effect not named in the record | AID 624287, 2012 | 0.13% of 340,000 active | Potency, µM (titrated, usually from 76.9 µM), for inactives: top-dose activation (cAMP increase), hits mostly activators; active = well fitted activation curve with a large enough effect; inconclusive = small, poorly fitted or top-dose-only effect, or another doubt; inactive = no such curve, though single readings can be large or run the other way; cell line not stated here;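 note: phosphodiesterase inhibitor Ro 20-1724 added with compounds to block cAMP breakdown; potency is the fitted concentration of half-maximal effect; nearly all actives have a fitted effect of over 60% in size; about a fifth of the inactives were tested at one dose only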
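Cells stably selected in G418 were plated at 2000/well, grown 16-24 hr, then given compounds in DMSO with the PDE inhibitor […] (300 uM solution added) for 30 min at 37C; cAMP was read by HTRF.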
CtBP-E1A inh: qHTS Assay for Inhibitors of the CtBP/E1A Interaction; 0.49% of 340,000 active; activity change, % (concentration not given with the values); AlphaScreen GST-E1A/His-CtBP binding, 1536-well; hits give low values; control for the full effect not named in the record; AID 651724, 2012; CtBP / adenovirus E1A interaction (AlphaScreen); in the data active means activity change below about -65%; inconclusive means about -30% to -65%; inactive means above about -30%; note: % is set by controls: 0 for no effect and ±100 for the full control effect
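GST-E1A and His-tagged CtBP (125 nM each as 5X stock) were preincubated with pin-transferred compound for 2 h at 37 °C in the dark, then glutathione donor and nickel acceptor beads were added for 1 h before AlphaScreen reading.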
An asterisk follows results filed as active; ? = inconclusive; nt = no result given; [ ] = dose if it differs, or a comment.

SMILES	Six1-Eya2 inh	D2 ag	D2 PAM	gsp antagonist	gsp ag	CtBP-E1A inh
O=C(/C=C\c1ccc2c(c1)OCO2)NC1(C(=O)Nc2ccc3c(c2)OCCO3)CCCCC1	0	2.4	-7	-15%	-8%[15.4 µM]	12
CC(C)(C)C(=O)NC(=S)N1CCOCC1	1	-2.0	3	20%	-3%[15.4 µM]	8
Cc1cc(NC(=O)COC(=O)[C@@H](NS(=O)(=O)c2ccc(Br)cc2)C(C)C)no1	3	-5.7	-3	-3%	-31%	8
Cc1ncc(CC(=O)n2cc(C(=O)c3cc(Cl)ccc3O)cn2)s1	-25	-1.8	-7	-6%	-29%	-11
COc1cccc(NC(=O)CN2CCN(c3ccccc3F)CC2)c1	-1	-2.5	-28	4%	?	3
CCOc1ccccc1N(CC(=O)Nc1cccc2ccccc12)S(C)(=O)=O	-2	-2.0	-3	-5%	31%	11
C=CCOC(=O)N1CCN(c2cccc(C(F)(F)F)c2)CC1	24	0.6	5	-5%	8%	9
COc1ccc(-c2csc(N(CCCN(C)C)C(=O)c3cccs3)n2)cc1	-23	-4.7	-15	11%	-8%	-19
Cn1c(N)c(C(=O)COC(=O)CCCc2nc3ccccc3s2)c(=O)n(C)c1=O	-11	1.2	-6	nt	-17%[15.4 µM]	-7
CCc1cccc(NC(=O)C2CCN(S(=O)(=O)c3cccs3)CC2)c1	-2	-2.8	-10	-4%	5%	0
O=C(Nc1ccccc1)NC(Cc1ccc(O)cc1)C(=O)O (stereo not drawn)	-3	-4.0	1	-10%	15%	0
COc1ccc(OC)c(N(CC(=O)Nc2ccccc2)S(C)(=O)=O)c1	-2	-2.9	-2	-1%	-45%[inhibitor]	9

Looked up by compound from the entries so far (3):
SMILES	Six1-Eya2 inh	D2 ag	D2 PAM	gsp antagonist	gsp ag	CtBP-E1A inh
C=CCOC(=O)N1CCN(c2cccc(C(F)(F)F)c2)CC1	24	0.6	5	-5%	8%	9
CCOc1ccccc1N(CC(=O)Nc1cccc2ccccc12)S(C)(=O)=O	-2	-2.0	-3	-5%	31%	11
O=C(/C=C\c1ccc2c(c1)OCO2)NC1(C(=O)Nc2ccc3c(c2)OCCO3)CCCCC1	0	2.4	-7	-15%	-8%[15.4 µM]	12

Other entries.
SMILES	Six1-Eya2 inh	D2 ag	D2 PAM	gsp antagonist	gsp ag	CtBP-E1A inh
CCOc1ccc2nc(COC(=O)c3ccco3)c(C(C)=O)[n+]([O-])c2c1	0	2.6	-14	-1%[15.4 µM]	12%	14
CC(C)C(NC(=O)c1ccccc1)C(=O)OCC(=O)N1CCN(c2ccccc2)CC1 (stereo not drawn)	-1	5.6	-3	3%	-21%	0
COc1ccc(C(CC(=O)O)NC(=O)c2ccccc2)cc1OC (stereo not drawn)	-1	-3.3	-21	10%	-16%	8
CCCS(=O)(=O)N1CCN(c2cc3c(cc2[N+](=O)[O-])n(C)c(=O)n3C)CC1	5	-2.8	3	?	3%[15.4 µM]	0
COc1ccc(C)cc1NC(=O)C1CCCN(S(=O)(=O)c2ccc3c(c2)CCCN3C(C)=O)C1 (stereo not drawn)	-10	-2.6	-13	-25%	30%	-14
CSc1nc2nc(-c3ccccc3)cc(C(F)(F)F)n2n1	4	-2.6	-6	0%	-35%[inhibitor]	3
CC(OC(=O)c1cccc(S(=O)(=O)N2CCCC2)c1)C(=O)c1ccccc1 (stereo not drawn)	-1	0.3	1	-4%	-1%	-2
COC(=O)c1cc(COc2ccc3oc(C)c(C(=O)OC)c3c2)c(C)o1	7	0.7	2	-12%	-1%	8
COc1ccc(Cl)cc1C(=O)Nn1cnc2ccccc2c1=O	-4	-2.1	4	2%	-47%[inhibitor]	6
O=c1[nH]c(=S)[nH]nc1Cc1ccc(Cl)c(Cl)c1	3	-1.3	-2	-1%	7%	-9
Cc1ccc(OCc2nc(-c3ccccc3)no2)cc1	35	0.0	1	6%	?	34
N#CCCNCC1(c2ccccc2)CCCC1	3	-2.5	0	2%	-13%	7
O=C(NCCO)/C(=C\c1ccc([N+](=O)[O-])o1)NC(=O)c1ccccc1	-4	9.2	10	-1%	-18%[15.4 µM]	6
Cc1cc2[nH]ncc2cc1NC(N)=S	0	-4.2	2	2%	-16%[15.4 µM]	5
COc1ccc(CCNc2ncnc3c2c(C)c(C)n3CCCN(C)C)cc1OC	-6	-5.5	-9	4%	-9%	-5
COC(=O)C1=C(c2ccc(OC)cc2)OC(=O)C1(C)C	13	-1.5	-6	6%	-20%	-13
CC(C)(C)NC(=O)C[C@H]1C[C@H](C(=O)N2CCOCC2)[C@@]2(C)c3[nH]c4cc(-c5ccco5)ccc4c3CCN2C1=O	-9	-7.9	3	-6%	nt	-5
CCOc1nc(OCC)c2[nH]c(C(=O)O)c(Br)c2n1	7	-0.6	5	0%	0%	12
O=C(OCc1cn([C@H]2C[C@H](c3ccc(Cl)cc3)N(C(=O)C3CCCCC3)C[C@@H]2O)nn1)c1ccccc1	4	0.9	-2	nt	-115%[inhibitor]	0
Cc1cc(C)cc(OC(=O)COc2ccccc2C)c1	13	-1.6	-1	-2%	-19%	17
c1csc(CNc2ccc3c(c2)OCCO3)c1	11	3.1	19	7%	0%	0
O=C(C1CCN(C2CCN(Cc3cccc4c3OCO4)CC2)CC1)N1CCOCC1	2	-3.6	-2	8%	-9%	0
CCCn1nc(C(=O)N2CCc3ccccc3C2)c2ccccc2c1=O	7	-1.4	-33	-9%	-32%[inhibitor]	-14
CC(C)(C)NC(=O)CSc1nncn1NCc1ccccc1	4	-1.4	-6	-16%	-9%	-1
NS(=O)(=O)c1ccc(CCNC(=O)c2ccc(CS(=O)(=O)c3ccc(Br)cc3)o2)cc1	-1	3.9	-6	24%	2%	-3
O=C(N[C@@H](Cc1ccccc1)C(=O)Nc1ccc(F)cc1)C1CCNCC1	6	-2.3	-13	23%	-1%	2
Cc1ccc(NC(=S)Nc2cccnc2)c(S(=O)(=O)N2CCCCC2)c1	-8	6.0	2	-4%	?	-6
COc1ccccc1-c1cc(C(=O)NCCN2CCOCC2)no1	0	-2.2	-23	5%	7%	-1
O=C(c1cccs1)N1C[C@@H](n2cc(-c3ccc(F)cc3)nn2)[C@H](O)C[C@@H]1c1ccccc1	-6	6.3	2	nt	?	4
CC(C)Oc1ccc(CCC(=O)NNC(=O)CCC(=O)O)cc1	0	3.2	-9	11%	-42%[inhibitor]	nt
CCn1c2ccccc2c2cc(NC(=O)CSc3nnc(-c4ccccc4)o3)ccc21	2	-0.6	6	5%	-28%	2
CCOC(=O)CNC(=O)CSc1nnc(NC(=O)c2ccccc2Cl)s1	0	-1.7	-2	-26%	9%[15.4 µM]	-16
CCCCOc1ccc(-c2ncc(C(=O)OCC)c(N)n2)cc1	8	-1.1	-4	-15%	-47%[inhibitor]	8
CC(Oc1ccc2c(-c3ccccc3)cc(=O)oc2c1)C(=O)O (stereo not drawn)	-1	-2.0	-15	-7%	?	0
Nc1c(/C=C2\C=Nc3ccccc32)c(=O)nc2sc(CC(=O)N3CCOCC3)nn12	-27	-0.2	-5	-1%	-30%	nt
COCCNC(=O)C1c2ccccc2C(=O)N(CCOC)C1c1ccc(F)cc1 (stereo not drawn)	1	1.9	10	-2%	-7%	3
Cc1cc(N/C(=N\S(=O)(=O)c2ccc(Cl)cc2)c2ccc(F)cc2)no1	?	-2.3	15	2%	?	0
CCOC(=O)C(/C(C)=N/NC(=O)C1CC1c1ccccc1)C(C)C (stereo not drawn)	0	-2.9	-7	3%	19%	-6
CCOc1ccc(NC(=O)c2ccc3c(c2)OCCO3)cc1S(=O)(=O)N(CC)CC	-13	-2.0	-8	-15%	12%	nt
O=C(O)C1CC=CCC1C(=O)Nc1cc(Cl)ccc1Cl (stereo not drawn)	-2	0.1	0	-11%	19%	-9
COc1ccccc1OCc1nnc(SCC(=O)N2CCCCC2)n1-c1ccccc1	1	-4.1	5	-2%	-23%	2
COc1ccc(CCN(C)C2CCCN(C(=O)c3sccc3C)C2)cc1OC (stereo not drawn)	-7	-1.9	-15	9%	-12%[15.4 µM]	4
N#CCCN1CCCc2cc(N=Nc3ccc(C(F)(F)F)cc3)ccc21	?	-5.6	-9	-7%	21%	?
CN(Cc1ccccc1)S(=O)(=O)c1ccc(Cl)c(C(=O)NCCc2ccccn2)c1	-5	-1.1	-22	2%	5%[15.4 µM]	6
Cc1cc2c(C)ccc(C)c2nc1SCC(=O)c1cccs1	13	-1.5	-20	-15%	2%	26
COc1ccc(S(=O)(=O)N2CCOC2CNC(=O)C(=O)NCc2ccncc2)cc1OC (stereo not drawn)	3	-4.8	-5	-2%	-46%[inhibitor]	10
O=C(CC(C(=O)O)c1ccc(Cl)cc1)c1ccc(Cl)c(Cl)c1 (stereo not drawn)	0	2.5	3	?	-2%	1
C/C=C(\C)C(=O)NCCN1C2=NC[C@@H](C)N2C[C@@H]1Cc1ccc(OC)cc1	-3	-1.0	-13	11%	-7%	1

A second format for part of the listing above:
Molecule: CC(C)C(NC(=O)c1ccccc1)C(=O)OCC(=O)N1CCN(c2ccccc2)CC1 (stereo not drawn)
- Six1-Eya2 inh: -1
- D2 ag: 5.6
- D2 PAM: -3
- gsp antagonist: 3%
- gsp ag: -21%
- CtBP-E1A inh: 0

Molecule: COc1ccccc1-c1cc(C(=O)NCCN2CCOCC2)no1
- Six1-Eya2 inh: 0
- D2 ag: -2.2
- D2 PAM: -23
- gsp antagonist: 5%
- gsp ag: 7%
- CtBP-E1A inh: -1

Molecule: CC(C)Oc1ccc(CCC(=O)NNC(=O)CCC(=O)O)cc1
- Six1-Eya2 inh: 0
- D2 ag: 3.2
- D2 PAM: -9
- gsp antagonist: 11%
- gsp ag: -42%[inhibitor]
- CtBP-E1A inh: nt

Screens deposited in PubChem BioAssay by National Center for Advancing Translational Sciences (NCATS).
